MT1-MMP act inh = blockers of MT1-MMP proenzyme processing, primary screen, HT1080 RFP-PRO-GFP cells, GFP/RFP fluorescence. GFP/RFP ratio fluorescence, overnight; percent of plate control window, DMSO zero. GFP/RFP ratio change, % at 20 µM. Matrix metalloproteinase-14 (Homo sapiens), P50281. 360,000 compounds, 0.061% hits;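 active = GFP/RFP ratio change of at least 30% with cell ATP level not reduced by more than half and red fluorescence within 50% of control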; also: strong numbers were not always called active
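Compound: 20 µM single dose, 1% DMSO / System: HT1080 RFP-PRO-GFP cells / Controls: DMSO and RFP-L50D-GFP cell wells / Read-out basis: GFP/RFP fluorescence ratio / Schedule: overnight compound exposure at 37 °C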
UUG fidelity = modulators of yeast start codon fidelity, primary screen, whole organism, S. cerevisiae, single point, plate reader. S. cerevisiae UUG-firefly luciferase reporter, luminescence/redox ratio. AID 602363, 2012. activity score, % at 18.7 µM. 350,000 compounds, 0.13% hits;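 active = replicate mean at a twofold rise or more, about +100% in these data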;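 also: firefly luciferase made from a UUG start codon reports start codon fidelity; reporter light over untreated wells divided by growth signal over untreated wells; some hits fall short of that in this replicate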
MT1-MMP act inh RFP = also measured in MT1-MMP act inh; calls as there; RFP signal change, %; measured here: RFP expression control read;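 0 = vehicle wells; hits needed this value within 50% of zero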
* hit, by the source's call; & = joins results of further samples. This is a subset; the hit share may differ from the screen's.

MT1-MMP act inh	MT1-MMP act inh RFP	UUG fidelity	Structure
2	0	-4	CC(C)COC(=O)N(C)C[C@H]1OCc2cn(nn2)CCCC(=O)N([C@H](C)CO)C[C@@H]1C
0	2	-20	COC(=O)c1sc(NC(=O)c2ccc3c(c2)OCO3)c(C#N)c1C
4	5	-15&-3	COc1cccc(CN(C)C[C@H]2OCc3cnnn3CCCC(=O)N([C@@H](C)CO)C[C@@H]2C)c1
35	1	-34	CN(C)c1ccc(N=Nc2nccs2)cc1
-2	1	-13	CC1CCN(CC(=O)Nc2ccc3c(c2)OCO3)CC1
0	-2	-6	O=C(Nc1nnc(-c2ccccc2)o1)c1cccc(S(=O)(=O)N2CCOCC2)c1
-2	2	-3	c1ccc2c(C3OCC4(CCCCC4)CO3)cccc2c1
6	-1	-21	CC(=O)c1ccc(NC(=O)c2ccc(N3CCCC3=O)cc2)cc1
1	5	-20	CC1(C2CCC3(C)OC3C2)CO1 (stereo not given)
-5	-1	-9	O=C(CN1CCN(C(C(=O)Nc2ccc(F)cc2)c2ccccc2)CC1)NC1CC1 (stereo not given)
6	2	-12	CCC(C)N(C(=O)COC(=O)CN=C1NS(=O)(=O)c2ccccc21)C1CCS(=O)(=O)C1 (stereo not given)
-1	-3	-13	COc1cc(C(=O)NNC(=O)C2CCC2)cc(OC)c1OC
-5	0	-14	O=C1C2C3C=CC(O3)C2C(=O)N1N=C1CCCCC1 (stereo not given)
5	7	-19	CC1=C(C(=O)N(C(C)C)C(C)C)CC(CC(=O)NCCc2ccccn2)C(=O)N1CCCN1CCCC1=O (stereo not given)
1	-1	12	COc1cccc(NC(=O)CN(C)C(=O)c2cccc(S(=O)(=O)Nc3ccc(C)cc3)c2)c1
-2	3	11	O=C(NCc1ccccc1CN1CCCC1)c1ccc(Cl)c(N2CCCC2=O)c1
1	-1	-9	Clc1ncnc2[nH]ccc12
-4	-4	6	COc1ccc([C@H]2CN(CCc3ccccc3)C(=O)[C@@H]2CC(=O)Nc2ccccc2)cc1
3	3	-26	Cc1cc(C(=O)NCC2CCCO2)sc1C (stereo not given)
2	0	-6	CCOc1ccc(C(=O)NCC(=O)OCCCC(=O)c2ccc(F)cc2)cc1OCC

No new results follow: six of the compounds above.
MT1-MMP act inh	MT1-MMP act inh RFP	UUG fidelity	Structure
6	-1	-21	CC(=O)c1ccc(NC(=O)c2ccc(N3CCCC3=O)cc2)cc1
1	5	-20	CC1(C2CCC3(C)OC3C2)CO1 (stereo not given)
-5	-1	-9	O=C(CN1CCN(C(C(=O)Nc2ccc(F)cc2)c2ccccc2)CC1)NC1CC1 (stereo not given)
6	2	-12	CCC(C)N(C(=O)COC(=O)CN=C1NS(=O)(=O)c2ccccc21)C1CCS(=O)(=O)C1 (stereo not given)
-1	-3	-13	COc1cc(C(=O)NNC(=O)C2CCC2)cc(OC)c1OC
-5	0	-14	O=C1C2C3C=CC(O3)C2C(=O)N1N=C1CCCCC1 (stereo not given)

Going on with the list:
MT1-MMP act inh	MT1-MMP act inh RFP	UUG fidelity	Structure
-1	-23	-20	COc1ccc(S(=O)(=O)N(C)C)cc1NC(=O)C1CCN(c2ncnc3sc(C)c(C)c23)CC1
-2	2	-7	Cc1sc2nc(CSCC(=O)N3CC(C)OC(C)C3)[nH]c(=O)c2c1C (stereo not given)
9	3	-24	CC1=C(C(=O)N(C)C)CC(CC(=O)NCCc2ccccn2)C(=O)N1CCC1=CCCCC1 (stereo not given)
0	4	-17	NN=C1C(=O)c2cccc3cccc1c23
2	-1	-13	CN(C)S(=O)(=O)c1cccc(NC(=O)COc2cccc3ccccc23)c1
-3	2	-8	CCN1C(=O)[C@H]2[C@@H](c3ccc(OC)cc3)N[C@]3(CCCN(CC4CCCCC4)C3=O)[C@H]2C1=O
0	0	2	O=C(CN1CCN(S(=O)(=O)c2cccs2)CC1)NCC1CCCCC1
0	-14	-9	Cc1ccc(S(=O)(=O)N2CCN(C(=O)CN3C(=O)NC(C)(c4ccc5ccccc5c4)C3=O)CC2)cc1 (stereo not given)
-1	-1	7	CCN(C(=O)CSc1nc(N)cc(=O)[nH]1)C1CCS(=O)(=O)C1 (stereo not given)
0	1	-19	c1ccc2occc2c1
2	3	5	CC(NC(=O)COC(=O)CNC(=O)c1ccccc1Cl)C1CC2CCC1C2 (stereo not given)
-3	-29	11	CC(C)C(NC(=O)Cc1ccccc1)C(=O)N1CCN(c2cccc(Cl)c2)CC1 (stereo not given)
-5	7	-13	CCc1ccc(N2CC(C(=O)OCc3nc4ccsc4c(=O)[nH]3)CC2=O)cc1 (stereo not given)
-1	3	13	O=[N+]([O-])c1ccc(S(=O)(=O)NN=CCCc2ccccc2)cc1
2	3	-5	CC(C)C(NC(=O)c1ccc(F)cc1)C(=O)N1CCC1 (stereo not given)
9	5	1	CCCCN1C(=O)C(=O)N(CC(=O)Nc2cc(Cl)ccc2OC)C1=O
3	-2	-20	CCC(C(=O)OCc1csc(CC(=O)Nc2ccccc2C)n1)c1ccccc1 (stereo not given)
-30	-21	-12	CCOc1ccc2oc(C(=O)OCC(=O)N(CC(C)C)c3c(N)n(Cc4ccccc4)c(=O)[nH]c3=O)c(C)c2c1
2	5	-6	CN1C[C@@H]2[C@@H]3C(=O)N(C)C(=O)[C@@H]3[C@](C)(C1=O)N2C(=O)c1ccccc1
13	-3	2	COc1ccc2c(c1)CCCC2=O

A different layout for 5 compounds above:
| SMILES | MT1-MMP act inh | MT1-MMP act inh RFP | UUG fidelity |
| --- | --- | --- | --- |
| COc1cccc(CN(C)C[C@H]2OCc3cnnn3CCCC(=O)N([C@@H](C)CO)C[C@@H]2C)c1 | 4 | 5 | -15&-3 |
| CN(C)c1ccc(N=Nc2nccs2)cc1 | 35 | 1 | -34 |
| CC1CCN(CC(=O)Nc2ccc3c(c2)OCO3)CC1 | -2 | 1 | -13 |
| O=C(Nc1nnc(-c2ccccc2)o1)c1cccc(S(=O)(=O)N2CCOCC2)c1 | 0 | -2 | -6 |
| c1ccc2c(C3OCC4(CCCCC4)CO3)cccc2c1 | -2 | 2 | -3 |

Further structures follow.
MT1-MMP act inh	MT1-MMP act inh RFP	UUG fidelity	Structure
-4	-16	-15	CC1CN(S(=O)(=O)c2ccc(C(=O)N3CCc4ccccc43)cc2)CC(C)O1 (stereo not given)
-2	3	-18	O=C(OCC(=O)N1CCN(C(=O)c2ccco2)CC1)c1ccc(Cl)cc1
3	0	-8	COC(=O)C[C@H]1C[C@H]2c3cc(NC(=O)CC4CC4)ccc3O[C@H]2[C@H](CO)O1
-2	-2	6	CC(=O)c1ccc(OCC(=O)Nc2cccc(C(=O)Nc3c(C)n(C)n(-c4ccccc4)c3=O)c2)cc1
-2	0	0	CCNc1nnc(SCC(=O)N2c3ccccc3NC(=O)CC2C)s1 (stereo not given)
7	1	-11	CC1CCC2(CC1)NC(=O)N(CC(=O)Nc1cccc(S(=O)(=O)N3CCCC3)c1)C2=O (stereo not given)
1	5	-8	CCOC(=O)CC[C@H](NC(=O)Cn1cc(C)c(=O)[nH]c1=O)C(=O)OCC
-12	-15	-1	COC(=O)C1=C(C)N(Cc2ccccc2)C(=NCc2cccc(C(F)(F)F)c2)N[C@H]1c1cccc(C(F)(F)F)c1
4	9	-18	CCNC(=O)C1(C)CCN(Cc2ccc(OC(F)(F)F)cc2)C1 (stereo not given)
1	-5	-13	CCCNC(=O)C1(C)CCN(C(=O)COc2ccc(Cl)cc2Cl)C1 (stereo not given)
-1	2	-5	O=C(CSc1ccccc1F)NCC1(N2CCCCC2)CCCCC1
-5	-6	4	CC(=O)c1ccccc1NC(=O)C1CCCN(C(=O)c2ccc(Cl)cc2)C1 (stereo not given)
-1	0	-95	O=C(COC(=O)c1ccccc1)c1ccc2c(c1)OCCO2
-172	-13	-29	O=C(NCc1ccco1)c1cccc2c1C(=O)c1ccc(N3CCC(Cc4ccccc4)CC3)cc1S2(=O)=O
0&3	-2&-3	-8&-13	COc1ccc(C2CC=C(C(C)=O)CN2S(=O)(=O)c2ccc(Cl)cc2)cc1 (stereo not given)
-1	3	-18	Cc1ccc2oc3ccccc3c(=O)c2c1
1	6	-2	Cc1ccc(NC(=O)COC(=O)CC2SC(N3CCCC3)=NC2=O)cc1 (stereo not given)
2	2	-17	CC(C)(C)Nc1c(C2CCNCC2)nc2c(OCc3ccccc3)cccn12
9	-2	-17	O=C1C=C(C2OC(CO)C(O)C2O)C(=O)N1 (stereo not given)
4	-4	5	COc1cc(C(=O)N2CCN(S(=O)(=O)c3ccc(C(C)C)cc3)CC2)ccc1OCC(=O)N1CCOCC1

Some entries already given, reduced to MT1-MMP act inh and UUG fidelity:
molecule | MT1-MMP act inh | UUG fidelity
CN1C[C@@H]2[C@@H]3C(=O)N(C)C(=O)[C@@H]3[C@](C)(C1=O)N2C(=O)c1ccccc1 | 2 | -6
O=C1C2C3C=CC(O3)C2C(=O)N1N=C1CCCCC1 (stereo not given) | -5 | -14

Next part
MT1-MMP act inh	MT1-MMP act inh RFP	UUG fidelity	Structure
17	-24	-8	CN(C)c1ccc(CC(=O)N2CCCC(c3cc(C(=O)Nc4ccc(C(C)(C)C)cc4)no3)C2)cc1 (stereo not given)
3	-1	-6	CCNC(=O)C1(C)CCN(C(=O)c2ccc(OC)c(OC)c2)C1 (stereo not given)
1	6	-2	CN(C)c1cccc(C(=O)Nc2ccc(S(=O)(=O)Nc3nccs3)cc2)c1
10	6	-8&-11	C[C@@H]1CN([C@H](C)CO)C(=O)CCCn2nncc2CO[C@H]1CN(C)Cc1cccc(O)c1
0	3	-12	COc1ccc(NC(=O)CN2C(=O)NC(C)(C3CC3)C2=O)cc1S(=O)(=O)N1CCCCC1 (stereo not given)
-1	1	35	CCN1CCN(c2ccc(S(=O)(=O)N3CCOCC3)cc2NC(=O)c2ccc(C)cc2C)CC1
1	4	-3	CCc1cccc(-n2c(SCC(=O)c3c(N)n(C4CC4)c(=O)[nH]c3=O)nnc2N2CCOCC2)c1
0	0	-8	CCCN1CCN(C(=O)c2ccc(-c3ccc([N+](=O)[O-])cc3)o2)CC1
0	1	-19	CCC1CCCCN1S(=O)(=O)c1ccc(NC(=O)C2CC(=O)N(C(C)(C)C)C2)cc1 (stereo not given)
-2	3	4	Nc1ncnc2c1ncn2[C@@H]1O[C@H](CNCc2cccn2-c2nccs2)[C@@H](O)[C@H]1O
2	8	-17	CC(C)CC(=O)Nc1ccc(C(=O)COC(=O)C2CC(=O)N(Cc3ccccc3)C2)cc1 (stereo not given)
-1	2	18	C[C@@H]1CN([C@@H](C)CO)C(=O)c2c(c3ccccc3n2C)-c2ccccc2CO[C@H]1CN(C)C(=O)C1CC1
2	2	1	CSc1cccc(NC(=O)COC(=O)c2ccccn2)c1
-21	9	-12	Cc1ccccc1CSCC1Nc2ccc(C(=O)NCCc3ccccc3)cc2NC1=O (stereo not given)
-2	-1	-13	CCCN(Cc1nc2cc(Cl)ccc2c(=O)[nH]1)C(=O)c1ccc(S(=O)(=O)N2CCCC2)cc1
0	4	-5	CC1NC(=O)c2cccnc2-n2c1nc1cc(F)ccc1c2=O (stereo not given)
1	3	-6	CC(=NNC(=O)C(C)SC(C)C(=O)NN=C(C)c1cccnc1)c1cccnc1 (stereo not given)
-8	-1	3	CCOC(=O)c1c(NC(=O)COC(=O)CCNS(=O)(=O)c2ccccc2)sc(C(=O)NC)c1C
0	-20	-30	O=c1oc(-c2ccc(O)c(O)c2)cc2cc(O)cc(O)c12
3	7	-19	O=C(c1ccncc1)N(c1ccc(N2CCOCC2)cc1)C(c1ccccc1)c1nc2ccccc2[nH]1 (stereo not given)

The list continues:
MT1-MMP act inh	MT1-MMP act inh RFP	UUG fidelity	Structure
8	4	-3	CC1(C(=O)Nc2ccc3c(c2)OCCO3)CCC(=O)N1CC(F)(F)F (stereo not given)
-1	0	-7	CCC1Nc2ncnc(N3CCN(c4ccccn4)CC3)c2N(Cc2ccc(Br)cc2)C1=O (stereo not given)
3	4	-12	COc1ccc(NC(=O)COC(=O)Cc2c[nH]c3ccccc23)cc1Cl
2	4	-20	CC1CCN(C(=O)c2ncn3c2c(=O)[nH]c2ccccc23)CC1
3	3	-6	O=C1CCN(Cc2ccccc2)C(=S)N1
1	4	-24	CN[C@H](C)C(=O)NC[C@H]1O[C@@H](n2cnc3c(N)ncnc32)[C@H](O)[C@@H]1O
-2	3	-13	COCCN(C(=O)c1ccc2c(c1)S(=O)(=O)N=C1CCCCCN12)c1c(N)n(CC(C)C)c(=O)[nH]c1=O
-3	6	-18	COc1cc(NC(C)CCCNC(C)C)c2ncccc2c1OC (stereo not given)
4	-1	-5	Cc1cc(=O)oc2c3c(cc(OCC(=O)NCC(O)c4ccccc4)c12)OC(C)(C)CC3 (stereo not given)
2	-1	-12	O=C(Nc1ccccc1)N1CCC(C(=O)N2CCN(Cc3ccccc3)CC2)CC1
0	-1	6	COc1ccc(C)cc1N1CC(C(=O)Nc2ccccc2N2CCCCC2)CC1=O (stereo not given)
-5	-3	-1	COC(=O)C1=C(C)N(Cc2ccccc2)C(=NCCc2c[nH]c3ccccc23)N[C@H]1c1cccc(C(F)(F)F)c1
0	5	-9	Nc1nc(Cl)c2ncn(C3OC(CO)C(O)C3O)c2n1 (stereo not given)
-2	3	-23	O=C(O)c1cc(N2C(=O)C=CC2=O)cc(N2C(=O)C=CC2=O)c1
3	10	6	COc1cccc(-c2cccc(-c3nc(C(=O)Nc4ccc(-c5ccccc5)cc4)cc4c3[C@H](CCO)N(S(=O)C(C)(C)C)C4)c2)c1 (stereo not given in full)

High-throughput results deposited in PubChem by several laboratories.
